# GIV Gai3 FP = inhibitors of GIV GBA-motif binding to rat Galpha-i3; Galpha-i3/FITC-GIV peptide fluorescence polarization, 90 min; stronger effect = lower value; scaled: aluminum fluoride 0%, vehicle 100%; percent of control (FP), % (concentration not given with the values); 210,000 tested, 0.42% active; P08753;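 active means replicate mean at 85% of control or lower, very high polarization wells dropped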;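 further: wells of about 15 µL received 100 nL stock; the first replicate is given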
# Target sequence (P08753 whole entry, looked up): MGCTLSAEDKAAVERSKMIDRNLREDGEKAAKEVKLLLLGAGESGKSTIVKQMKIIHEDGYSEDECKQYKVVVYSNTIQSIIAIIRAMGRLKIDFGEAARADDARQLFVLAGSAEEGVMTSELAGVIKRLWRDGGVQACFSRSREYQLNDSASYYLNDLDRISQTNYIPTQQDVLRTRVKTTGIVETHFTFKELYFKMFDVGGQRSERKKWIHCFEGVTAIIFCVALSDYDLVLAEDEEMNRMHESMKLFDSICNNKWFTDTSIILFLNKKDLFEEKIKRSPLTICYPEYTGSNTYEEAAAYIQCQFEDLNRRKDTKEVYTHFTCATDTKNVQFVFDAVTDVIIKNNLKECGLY
# Sa growth inh = blocks Staphylococcus aureus growth; 170,000 tested, 0.53% active; relative growth, % (test concentration not listed); S. aureus RN4220 growth, OD600, 20 h, 42 °C; stronger effect = lower value;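 active means growth at 42 °C up to 50% and 20 or more points under that at 30 °C, or under 10% at both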;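 further: 300 nL library stock went into each well; scaled to the means of positive and negative controls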
# HCMV UL50-53 inh = disrupts HCMV UL50-UL53 complex binding. inhibition, % (test concentration not listed). HTRF UL50-UL53 interaction, normalized percent inhibition. 190,000 tested, 0.15% active;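 active means both replicates at 50% or more, plus weaker picks with an unusually low signal ratio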;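 further: stock transfer was 100 nL into about 20 µL; 0% = negative control wells and 100% = wells with untagged competitor protein; inactives centre near -12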
# Sa growth inh second temp = also measured in Sa growth inh; calls as there; relative growth, %; measured here: growth at 30 °C;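 optical density after 20 h as mean of two plates; 100% = untreated growth and lower means inhibition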
# The depositor's hits bear a star; . = no result given; & = joins results of further samples.
mol	GIV Gai3 FP	Sa growth inh	Sa growth inh second temp	HCMV UL50-53 inh
COCCN1C(=O)c2oc3cc(C)cc(C)c3c(=O)c2C1c1cccc(O)c1 (stereo unspecified)	96	98	87	-39
O=C(O)CN1C(=O)/C(=N\N2C(=O)CSC2=S)c2ccccc21	99	82	70	-20
COc1cccc(-c2ccc(=O)n(CC(=O)NCc3ccccc3)n2)c1	102	93	94	-62
CC(NC(=O)C1CCCN(S(=O)(=O)N2CCCCC2)C1)C12CC3CC(CC(C3)C1)C2 (stereo unspecified)	97	98	89	.
COc1cccc(CNC(=O)C2CSC3(CCN(C)CC3)N2C(C)=O)c1 (stereo unspecified)	100	101	92	-10
CCCOc1ccc(NC(=O)CC2C(=O)N(c3cccc(OC)c3)C(=O)N2CCc2ccncc2)cc1 (stereo unspecified)	106	102	75	.
COC(=O)c1sccc1NC(=O)CC1C(=O)NCCN1C(=O)NS(=O)(=O)c1ccc(C)cc1 (stereo unspecified)	111	99	94	-4
COc1ccccc1CNCC(=O)NCc1ccc(C)cc1	100	119	90	-16
CC(=O)Nc1ccc(S(=O)(=O)NCC2CCC(C(=O)NCCc3ccccc3)CC2)cc1 (stereo unspecified)	103	119	91	.
O=C(NC1CCN(C(=O)NCc2ccccc2)CC1)c1ccco1	99	121	93	-29
Cc1ccc(C23CCC(=O)N2C(C(=O)N2CCN(c4ccc(F)cc4)CC2)CS3)cc1 (stereo unspecified)	.	105	85	-30
COC(=O)c1c(C)sc2cc(C(C)(C)C)sc12	106	109	93	-13
Clc1cccc(-c2nn3cnnc3s2)c1	107	.	.	3
CCOC(=O)C1=C(CN(C)c2ccccc2)NC(=O)NC1c1ccc(OC(C)C)cc1 (stereo unspecified)	106	65	55	-7
O=C1CN(c2ccccc2)C(=O)C1C(=O)Nc1ccccc1 (stereo unspecified)	99	110	98	-4
N#Cc1c(N)nc(C(F)(F)F)nc1-c1ccccc1	.	101	99	21
CCCC(C)C(=O)Nc1cc(C)ccn1 (stereo unspecified)	103	107	98	-11
O=C(/C=C/c1ccccc1)Oc1ccc(-c2nnco2)cc1	.	109	101	-19
O=C(CSc1nc2ccccc2c(=O)n1CC1CCC(C(=O)NCc2ccccc2)CC1)Nc1nccs1 (stereo unspecified)	96	101	99	6
COc1ccc(N2CC(NC(=O)Cc3cccs3)CC2=O)cc1OC (stereo unspecified)	101	118	91	.

# Arranged by value in Sa growth inh (lowest first): 3 from the list above
Structure | GIV Gai3 FP | Sa growth inh | Sa growth inh second temp
O=C(CSc1nc2ccccc2c(=O)n1CC1CCC(C(=O)NCc2ccccc2)CC1)Nc1nccs1 (stereo unspecified) | 96 | 101 | 99
Cc1ccc(C23CCC(=O)N2C(C(=O)N2CCN(c4ccc(F)cc4)CC2)CS3)cc1 (stereo unspecified) | . | 105 | 85
O=C(/C=C/c1ccccc1)Oc1ccc(-c2nnco2)cc1 | . | 109 | 101

# Further records:
mol	GIV Gai3 FP	Sa growth inh	Sa growth inh second temp	HCMV UL50-53 inh
COc1ccc(Cl)cc1NC(=O)Cn1nnc2sc3c(c2c1=O)CCC(C(C)(C)C)C3 (stereo unspecified)	102	95	88	-40
COc1ccc(OC)c(CCNC(=O)CCCc2nnc3n(C)c(=O)c4sccc4n23)c1	99	100	95	13
Cc1c(C(=O)N2CCCC(C)C2)sc2nc3n(c(=O)c12)CCC3 (stereo unspecified)	106	.	.	8
CCN(CC)C(=S)Oc1ccc(Br)cc1C(=O)NCCc1ccncc1	98	85	81	-20
O=C1S/C(=C\c2ccccc2)C(=O)N1CCn1cnnn1	.	98	86	-55
COc1ccc(C2c3c(n(C)c(=O)n(C)c3=O)N=C3c4ccccc4C(=O)C32)cc1 (stereo unspecified)	.	84	86	-79
Cc1ccc(C(=O)N2c3ccc(C)cc3C(C)(c3ccccc3)CC2(C)C)cc1 (stereo unspecified)	104	95	85	-57
O=C(CCSCc1ccccc1Cl)NCCc1ccccc1	103	104	92	.
O=c1c(Cl)c(Cl)cnn1-c1ccc(C(F)(F)F)cn1	.	103	88	-12
Cc1ccc(C)c(OC(=O)CSc2nc(-c3ccc(Cl)cc3)nc3cc(=O)[nH]n23)c1	103	.	.	-22
CCOc1ccc(NC(=O)c2ccc3c(c2)CCN3S(=O)(=O)c2ccc(Cl)cc2)cc1	105	83	82	-35
Cc1nn(-c2ccccc2)c2nc(C3CC3)cc(C(=O)Nc3ccccc3F)c12	100	86	85	.
Cc1ccc(-c2ncc(Cl)cc2-c2ccc(S(C)(=O)=O)cc2)cn1	103	95	89	-10
COc1ccccc1OC(C)C(=O)N1CCC(c2nc3ccccc3s2)CC1 (stereo unspecified)	101	97	44	7
O=C(O)CCc1ccc(-c2ccccc2)n1-c1ccccc1O	110	87	89	-2
O=C(O)C1CCCN1C(=O)Nc1cccc(Cl)c1 (stereo unspecified)	102	.	.	-26
COc1ccc(OC)c(Nc2nc3nonc3n3nnnc23)c1	98	112	109	-24
O=C(Nc1cnn(Cc2ccc(Cl)cc2Cl)c1)c1noc2c1CCc1ccccc1-2	105	108	92	1
O=C(Nc1ccc(N=Cc2cccnc2)cc1)c1ccccc1O	102	109	98	0
Cc1cc(NC(=O)CCCN2C(=O)c3cccnc3C2=O)ccc1Br	103	81	81	-12
COc1ccc2c(c1)N(C)/C(=C1/OC(=S)N(C)C1=O)S2	.	70	95	10
O=S(=O)(CCN1CCN(c2ccccn2)CC1)c1ccc(Cl)cc1Cl	98	85	78	-10
CCOC(=O)N1CCc2c(sc(NCc3cccs3)c2C(=O)Nc2cc(OC)ccc2OC)C1	116	120	78	.
Cc1ccc(CSc2nnc(-c3ccncc3)o2)cc1	98	.	.	-4
N/C(=N\O)c1nccnc1Oc1cccc(C(F)(F)F)c1	105	95	94	0
COC(=O)CCSc1ncnc2sc3c(c12)CCC3	.	95	93	-5
Cc1nc(N2CCc3ccccc32)nc2c1C(=O)CC(C)C2 (stereo unspecified)	98	.	.	-32
Cc1ccc(S(=O)(=O)NCCc2csc(-c3ccc(Cl)cc3)n2)cc1	102&99	93	92	-29
CCC(C)n1nccc1NC(=O)c1ccc(Cl)cc1 (stereo unspecified)	102	.	.	-13
Cc1ccc(OCC(O)CN)cc1 (stereo unspecified)	104	109	79	-5

# Part of the list above in another layout.
COc1ccccc1OC(C)C(=O)N1CCC(c2nc3ccccc3s2)CC1 (stereo unspecified)
  GIV Gai3 FP: 101
  Sa growth inh: 97
  Sa growth inh second temp: 44
  HCMV UL50-53 inh: 7
O=C(Nc1cnn(Cc2ccc(Cl)cc2Cl)c1)c1noc2c1CCc1ccccc1-2
  GIV Gai3 FP: 105
  Sa growth inh: 108
  Sa growth inh second temp: 92
  HCMV UL50-53 inh: 1
CC(=O)Nc1ccc(S(=O)(=O)NCC2CCC(C(=O)NCCc3ccccc3)CC2)cc1 (stereo unspecified)
  GIV Gai3 FP: 103
  Sa growth inh: 119
  Sa growth inh second temp: 91
  HCMV UL50-53 inh: .
CCOC(=O)C1=C(CN(C)c2ccccc2)NC(=O)NC1c1ccc(OC(C)C)cc1 (stereo unspecified)
  GIV Gai3 FP: 106
  Sa growth inh: 65
  Sa growth inh second temp: 55
  HCMV UL50-53 inh: -7

# The results go on:
mol	GIV Gai3 FP	Sa growth inh	Sa growth inh second temp	HCMV UL50-53 inh
COc1ccc(Nc2ncnc3c2cnn3C)c(OC)c1	101	115	87	.
CC(CCc1ccccc1)NC(=O)c1ccc(CS(=O)(=O)c2ccc(Br)cc2)o1 (stereo unspecified)	96	115	89	.
OCCOc1ccccc1OCCBr	.	99	79	-15
COc1ccc(-c2noc(CSc3ccc(-c4ccc(Br)cc4)nn3)n2)cc1OC	105	.	.	-11
CC(C)(Oc1ccc(Cl)cc1)C(=O)OCC(=O)Nc1ccc(Cl)cc1	.	92	95	-12
CC1=C(C)CC2C(=O)N(Cc3ccccc3)C(=O)C2C1 (stereo unspecified)	105	104	87	5
Cc1ccccc1Cn1c(COc2ccccc2)nc2ccccc21	102	.	.	-18
Cc1nn(C(=O)c2ccc(Cl)cc2)c(C)c1Sc1ccc(Cl)cc1	99	89	95	-35
COc1ccc(OC)c2[nH]c(=O)c(CCNC(=O)/C=C\c3ccc4c(c3)OCO4)cc12	103	103	82	.
CCOC(=O)c1cnn(-c2ccc(C(=O)Nc3cc(OC)c(OC)c(OC)c3)cc2)c1N	103	124	84	.
Cc1cc(C(=O)COc2ccc3ccc(=O)oc3c2)c(C)n1-c1nccs1	.	89	92	-23
Cc1ccc(NC(=O)CCc2c(C)[nH]c(=O)c(C#N)c2C)cc1	.	85	93	-26
O=C(CCN1CCOCC1)Nc1cc(Cl)cc(Cl)c1	99	80	91	-22
CCCCOc1cccc(C(=O)N(Cc2ccc(N(C)C)cc2)C2CCS(=O)(=O)C2)c1 (stereo unspecified)	102	99	89	-73
Cc1ccc(-c2nc(SCC(=O)N3CCOc4ccc(C)cc43)c(S(=O)(=O)c3ccccc3)[nH]2)cc1	105	.	.	-8
CCCN(c1nc2nc(C)c(Cl)c(C)n2n1)S(=O)(=O)c1ccccc1	101	.	.	-10
Cc1nn2c(C(F)(F)F)cc(-c3ccccn3)nc2c1-c1ccc(Cl)cc1	101	.	.	-22
O=C(CSc1nc(-c2ccccc2)nc2c1CCCC2)c1ccc(O)c(O)c1	101	54	47	-6
COc1ccc(NC(=O)CC2CS(=O)(=O)CC2CC(=O)Nc2ccc(OC)cc2)cc1 (stereo unspecified)	.	78	82	-10
Cc1ccc(C)c(-c2nnc(NC(=O)c3cccc(S(C)(=O)=O)c3)o2)c1	105	5.5*	2.2*	3

# 2 entries from above, as labelled records:
CCCOc1ccc(NC(=O)CC2C(=O)N(c3cccc(OC)c3)C(=O)N2CCc2ccncc2)cc1 (stereo unspecified)
  GIV Gai3 FP = 106; Sa growth inh = 102; Sa growth inh second temp = 75; HCMV UL50-53 inh = .

Cc1nn(-c2ccccc2)c2nc(C3CC3)cc(C(=O)Nc3ccccc3F)c12
  GIV Gai3 FP = 100; Sa growth inh = 86; Sa growth inh second temp = 85; HCMV UL50-53 inh = .

# Continuation:
mol	GIV Gai3 FP	Sa growth inh	Sa growth inh second temp	HCMV UL50-53 inh
Cn1c(=O)oc2cc(S(=O)(=O)N3CCc4ccccc4C3)ccc21	103	106	101	2
CSc1ccccc1C(=O)O	.	101	91	-23
COc1ccc(/C=C/C(=O)Nc2ccc(NC3CCCCC3)c3c2C(=O)c2ccccc2C3=O)cc1	106	.	.	-8
CCOC(=O)c1nc2ccccc2nc1Nc1ccc(OC)cc1	106	.	.	-22
CC(C)Nc1nc(NC2CCCC2)nc(N2CCOCC2)n1	99	97	72	-2
Cc1ccc(-c2nnc(Nc3ccc(OCC(N)=O)cc3)c3ccccc23)cc1S(=O)(=O)NCC1CCCO1 (stereo unspecified)	100	112	96	-35
Clc1ccc(-c2nn3c(-c4ccccn4)nnc3s2)cc1	105	.	.	-18
COc1ccc(-c2cc(C(=O)NCCc3ccccc3)c3c(-c4ccc(Cl)cc4)[nH]nc3n2)cc1	103	80	90	.
Fc1cccc(N=Cc2ccc3c(c2)OCO3)c1	109	62	43	4
Cc1nc(-c2ccc(S(=O)(=O)N3CCN(c4cccc(C(F)(F)F)c4)CC3)cc2)co1	105	94	86	.
CCOC(=O)CSc1ncnc2sc(C)c(C)c12	.	101	79	0
Cc1ccc(NC(=O)C(OC(=O)c2ccccn2)c2ccccc2)cc1Cl (stereo unspecified)	.	98	96	12
C=CCOc1cccc(C(=O)Nc2ccccc2)c1	114	71	76	-12
COc1ccc(Cl)cc1C(=O)NN1C(=S)NC(C)(C)C=C1C	.	70	70	-13
NC(=O)C1CC2C=CC1C2 (stereo unspecified)	.	108	85	-13
CC(=O)c1cccc(NC(=O)CN2C(=O)c3cccnc3Sc3ccccc32)c1	110	98	82	.
Cn1c(=O)c2c(-c3cccc(Br)c3)c(Nc3ccccc3)oc2n(C)c1=O	105	.	.	-10
CC1=CCC23CC1C(=O)C=C2CC(C)(C)CC3=O (stereo unspecified)	105	86	88	-26
O=C(Cc1n[nH]c(=O)c2ccccc12)N1CCc2ccccc2C1	.	105	91	-44
Cc1ccccc1-c1noc(-c2cc(C(C)C)[nH]n2)n1	107	102	94	.
O=C1Nc2ccccc2SC1CC(=O)N1CCN(Cc2ccccc2F)CC1 (stereo unspecified)	.	102	80	-8
CCOc1cccc(/C=N/n2c(C)n[nH]c2=S)c1	99	100	92	-5
CCSc1nc(Cl)c2ccccc2n1	102	90	74	-7
CC(=O)NC(CC(=O)Nc1ccc2c(c1)OCO2)c1ccccc1 (stereo unspecified)	.	94	93	-19
CC(C)CC(C(=O)Nc1nnc(C(C)C)s1)N1C(=O)c2ccccc2C1=O (stereo unspecified)	109	107	102	-2
Cc1ccc(OCC(=O)NC(=S)N2CCOCC2)cc1	102	98	99	7
COc1ccc(C2CC(c3ccccc3)=NN2C(=O)c2cccs2)cc1 (stereo unspecified)	103	.	.	-9
Cc1ccccc1Nc1nnc(C)c(=O)n1N	98	86	79	.
CCCCC[C@H](O)/C=C/[C@H]1[C@H](O)CC(=O)[C@@H]1CCCCCCC(=O)O	105	90&84	89&86	-33&3&-9&-9&-10&-27
Cc1cccc(Nc2nnc(C(C)(C)C)c(=O)[nH]2)c1	96	.	.	-27
Cc1ccc2nsnc2c1NC(=O)Cc1ccc(Cl)cc1	109	91	91	.
CC(Oc1ccccc1Cl)C(=O)Oc1cccc(-n2cnnn2)c1 (stereo unspecified)	102	.	.	-20
O=C(NCCC(=O)N1CCCCCC1)c1ccccc1Cl	.	100	83	-21
CCN1CCN(C(=O)c2ccc(I)cc2)CC1	.	122	88	-19
COC(=O)c1c(N)sc2c1CCCC2	107	109	92	-8

# From PubChem
